# Assay outcomes deposited in PubChem BioAssay by National Center for Advancing Translational Sciences (NCATS).
# VDR inhibitor = inhibitors of human vitamin D receptor; actives 0.93% (n = 400,000); AID 504847; Potency, µM, without a hit: max response, negative = inhibition, usual class: inhibitors; VDR-SRC2-3 peptide fluorescence polarization, 2 h; active = well fitted inhibition curve with a large enough effect; inconclusive = small, poorly fitted or top-dose-only effect, or another doubt; inactive = no such curve, though single readings can be large or run the other way; also: series mostly up to about 120 µM
# Target sequence (P11473 whole entry, looked up): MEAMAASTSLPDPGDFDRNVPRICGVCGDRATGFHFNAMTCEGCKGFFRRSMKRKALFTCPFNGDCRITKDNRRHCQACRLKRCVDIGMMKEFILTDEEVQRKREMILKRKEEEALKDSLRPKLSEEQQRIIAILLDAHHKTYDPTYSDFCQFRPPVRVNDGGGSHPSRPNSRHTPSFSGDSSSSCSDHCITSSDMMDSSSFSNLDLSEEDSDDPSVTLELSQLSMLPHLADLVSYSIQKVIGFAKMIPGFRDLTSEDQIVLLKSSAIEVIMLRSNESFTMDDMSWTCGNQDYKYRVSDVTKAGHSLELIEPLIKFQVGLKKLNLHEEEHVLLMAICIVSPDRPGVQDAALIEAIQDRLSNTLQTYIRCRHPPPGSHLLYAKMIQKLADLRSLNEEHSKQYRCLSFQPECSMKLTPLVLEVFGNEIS
#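 Compounds are added to VDR with labelled SRC2-3 coactivator peptide and held 2 h at room temperature. Inhibition of the VDR–peptide interaction is then read as a change in fluorescence polarization.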
# An asterisk follows results filed as active; ? = inconclusive; & = joins results of further samples. % is scaled to controls: 0 for no effect and ±100 for the full control effect; potency is read from the fitted curve at half-maximal effect.
SMILES,VDR inhibitor
CCOC(=O)/C=C(/C)N1N=C(c2ccc(OC)cc2)CC1c1cccc([N+](=O)[O-])c1 (stereo unspecified),?
Cn1c(C(=O)O)c(CC(=O)Nc2ccccc2F)c2ccccc21,-7%
O=C(NC(=O)c1csnn1)Nc1ccccc1Cl,-21%
C/C(=N\NC(=O)c1c(Cl)c(C)nn1C)c1cccc(NC(=O)COc2ccc(Cl)cc2)c1,-1%
Cc1cc2c(cc1C)NC(=O)CC(c1ccccc1)=N2,-24%
O=C(c1ccco1)N1CCN(C(=O)c2ccccc2Oc2ccccc2)CC1,7%
COc1ccc2c(C)nc(Nc3nc(C)cc(C)n3)nc2c1,0%
Cn1ccnc1SCC(=O)Nc1cccc(C#N)c1,15%
CC(=O)Nc1ccc(Nc2nc(C)nc3c2nnn3Cc2ccccc2Cl)cc1,-14%
CC1CC1C(=O)OCC(=O)NCc1ccc(Cl)cc1 (stereo unspecified),-3%
CCc1noc(C)c1C(=O)NNC(=O)c1cc(OC)c(OC)c(OC)c1,9%
COc1ccc(Cc2nc3ccc(C(=O)NCCCSC)cc3o2)cc1OC,4%
COc1ccc(C(=O)NCC(=O)OCC(=O)Nc2cc(OC)ccc2OC)cc1,-6%
CC(C)n1nc(C(=O)NNC(=O)c2ccncc2)c2ccccc2c1=O,-6%
COc1ccc(-n2nc(C(=O)NCC(=O)NCc3ccc(F)cc3)c3ccccc3c2=O)c(OC)c1,8%
CCCOc1ccc(/C=C/C(=O)Nc2sc3c(c2C(=O)OCC)CCC(C)C3)cc1OC (stereo unspecified),-20%
CCOC(=O)C(C)c1n[nH]c(=O)c2ccccc12 (stereo unspecified),-2%
COC(=O)c1cc(-c2ccc(Cl)cc2)n(-c2ccc(S(N)(=O)=O)cc2)n1,-17%
CCOc1ccc(NS(=O)(=O)c2ccc(NC(=S)NC(=O)C(C)C)cc2)cc1,-15%
O=C(CSc1ccc(-c2cccnc2)nn1)Nc1ccccc1C(F)(F)F,8%

# Given with bars between the fields: entries from further up.
Structure | VDR inhibitor
COc1ccc(Cc2nc3ccc(C(=O)NCCCSC)cc3o2)cc1OC | 4%
COc1ccc(C(=O)NCC(=O)OCC(=O)Nc2cc(OC)ccc2OC)cc1 | -6%
CC(C)n1nc(C(=O)NNC(=O)c2ccncc2)c2ccccc2c1=O | -6%
COc1ccc(-n2nc(C(=O)NCC(=O)NCc3ccc(F)cc3)c3ccccc3c2=O)c(OC)c1 | 8%
CCCOc1ccc(/C=C/C(=O)Nc2sc3c(c2C(=O)OCC)CCC(C)C3)cc1OC (stereo unspecified) | -20%

# New compounds follow.
SMILES,VDR inhibitor
CC1(C)CC(NC(=O)c2cc([N+](=O)[O-])cc([N+](=O)[O-])c2)CC(C)(C)N1,?
Cc1ccc(S(=O)(=O)c2cn(Cc3cccc(F)c3)c3cc(N4CCCC4)c(F)cc3c2=O)cc1,1%
O=C(CCC(=O)N(CC(=O)NC1CCCCC1)Cc1ccccc1)Nc1ccccn1,1%
CCOC(=O)CC1(NC(=O)c2cc(COc3c(F)cccc3F)on2)CCCCC1,-15%
O=S1(=O)CCS(=O)(=O)C1c1ccccc1,-4%
O=C(NCc1ccco1)C(c1ccncc1)N(C(=O)Cn1nnc2ccccc21)c1ccccc1F (stereo unspecified),-11%
CN1CCN(CCCNc2c(C=O)c(=O)[nH]c3ccccc23)CC1,-15%
COc1ccc(CCNS(=O)(=O)c2c(C)nc3sc(C)cn3c2=O)cc1OC,17%
COC(=O)C1=NN(c2ccc(Cl)cc2)C2C(=O)N(c3ccccc3OC)C(=O)C12 (stereo unspecified),11%
CC(C)(C)c1ccc(S(=O)(=O)NNC(=O)C2CCN(Cc3cccc(F)c3)CC2)cc1,1%
CCOC(=O)CCCCNC(=O)Nc1ccccc1,-10%
Cc1c(O)ccc2c(CN3CCOCC3)cc(=O)oc12,-5%
COCCNC(=O)c1c[nH]c2cc(OC)c(OC)cc2c1=O,-11%
O=C1NC(c2cccs2)C(C(=O)c2ccccc2)C(O)(C(F)(F)F)N1 (stereo unspecified),-10%
O=C(NC1CCCC1)C(c1ccc(F)cc1)N(Cc1ccc(F)cc1)C(=O)CCl (stereo unspecified),-18%
O=S(=O)(NCCc1csc2nc(-c3ccc(F)cc3)nn12)c1ccc2c(c1)OCCO2,16%
COC(=O)c1ccc2c(c1)N(CC(=O)Nc1cccc(C(F)(F)F)c1)C(=O)c1ccccc1S2,-6%
CC1(C)S/C(=N/N=C/c2ccco2)NC1=O,-15%
CCCc1cc(C(=O)NNC(=S)NCC)c2ccccc2n1,-13%
c1ccc(CSc2nnc(-c3cccs3)n2Cc2ccco2)cc1,0%

# Part of the list above, as tab-separated lines.
SMILES	VDR inhibitor
Cc1c(O)ccc2c(CN3CCOCC3)cc(=O)oc12	-5%
COCCNC(=O)c1c[nH]c2cc(OC)c(OC)cc2c1=O	-11%
O=C(NC1CCCC1)C(c1ccc(F)cc1)N(Cc1ccc(F)cc1)C(=O)CCl (stereo unspecified)	-18%
c1ccc(CSc2nnc(-c3cccs3)n2Cc2ccco2)cc1	0%
CCOC(=O)CCCCNC(=O)Nc1ccccc1	-10%

# The list goes on.
SMILES,VDR inhibitor
CC(C)(C)NC(=O)NC(=O)COC(=O)Cn1c(C(F)(F)F)nc2ccccc21,-12%
O=C(c1ccsc1)N1CCCC(N2CCN(c3cccc(Cl)c3)CC2)C1 (stereo unspecified),-8%
Cc1cc(OCC(=O)Nc2ccc(CN3CCOCC3)cc2)c2c(C)cc(=O)oc2c1,-6%
Cc1cc(Br)cc2c1NC(=O)C2(c1c(C)n(C)n(-c2ccccc2)c1=O)c1c(C)n(C)n(-c2ccccc2)c1=O,-22%
NC(=S)Nc1ccc2cc[nH]c2c1,9%
COC(=O)c1cc(S(=O)(=O)N2CCN(c3ccc(C(C)=O)cc3)CC2)c[nH]1,-8%
CCC(C)c1ccc(NC(=O)COc2c(F)c(F)c(C(F)(F)F)c(F)c2F)cc1 (stereo unspecified),-8%
COc1ccc(C2/C=C\CN(S(=O)(=O)c3ccc(C)cc3)CC(=O)N2Cc2ccc(F)cc2)cc1 (stereo unspecified),-5%&-6%
c1ccc(CNc2ccc3c(c2)ncn3C2CCCCC2)nc1,-3%
Cc1ccc(CN2c3ccccc3S(=O)(=O)c3ccccc32)cc1,-3%
CSc1nc2ccc(NC(=O)C3=NNC(=O)CC3)cc2s1,-2%
CCCn1c(SCC(=O)Nc2nonc2C)nnc1-c1ccoc1C,-10%
CCCCOc1ccc(C(=O)NCc2ccco2)cc1,0%
O=c1cc(-c2ccccc2)nc(SCc2nc(-c3cccc(C(F)(F)F)c3)no2)[nH]1,14%
COc1ccc(OC)c(C2C(C(=O)c3sc(C)nc3C)=C(O)C(=O)N2CCN2CCOCC2)c1 (stereo unspecified),-6%
CC1CN(C(=O)c2cc(Br)c(Br)s2)CC(C)O1 (stereo unspecified),-12%
O=C(Cc1cccc2ccccc12)N/N=C1\CCCc2ccccc21,-14%
C=CCSc1nc(-c2ccc(OC)cc2)c(C#N)c(=O)n1CC=C,-2%
COc1ccc(N(CC(=O)N/N=C/c2cccc(OC)c2OC)S(=O)(=O)c2ccccc2)cc1,-1%
N#CC1=C(N)N=C(SCc2ccccc2)C(C(N)=O)C12CCCCC2 (stereo unspecified),-2%
COC(=O)CSc1nc2ccc(NC(=O)c3ccccc3C(=O)N3CCOCC3)cc2s1,-22%
Cc1ccccc1CN1N=C(/C=C/c2ccccc2)CCC1=O,-7%
CCC(=O)NC(=S)Nc1ccccc1F,-6%
COc1ncnc2c1NC1=C(S2)C(=NCCC(=O)O)CC(C)(C)C1,-6%
CC(C)CCNC(=O)C1CCN(S(=O)(=O)c2ccc3c(c2)CC(C)N3C(=O)C2CC2)CC1 (stereo unspecified),-14%
COc1ccc(NC(=O)NCc2ccco2)cc1OC,-15%
Cc1ccc(C2Nc3ccccc3NC3=C2C(=O)OC(C)C3)cc1 (stereo unspecified),-13%
CC(C)Cc1nc(SCC(=O)N2CCCC2)c2c(=O)n(C)c(=O)n(C)c2n1,4%
CC1(C)C(c2ccccc2)=[N+]([O-])CN1O,-3%
O=C(c1ccco1)n1nc(-c2ccccc2)nc1NCc1ccc(F)cc1,13%
Cn1c(=O)c2c(ncn2CC(=O)Nc2cccc(C(F)(F)F)c2)n(C)c1=O,2%
O=C1CNC(=O)/C1=C\N1CCN(C(c2ccccc2)c2ccccc2)CC1,10%
COc1cccc(NC(=O)C(C)N2C(=O)c3ccccc3S2(=O)=O)c1 (stereo unspecified),-2%
COc1ccc(/C=N/Nc2nncc3ccccc23)c(OC)c1,-10%
C#CCNc1cc(C)nc2ncnn12,-11%
O=C(c1ccccc1)N1CCN(CCc2ccncc2)CC1,19%
CCCCCNC(=O)C1c2ccccc2Oc2ccccc21,-18%
CCOc1ccc(-c2nnc(SCC(=O)Nc3cccc(C#N)c3)o2)cc1,-2%
COc1cc(OC)c(NC(=O)CN2C(=O)CCn3nc(-c4cccn4C)cc32)cc1Cl,6%
COc1cccc(NC(=O)Nc2ccc3nc(C)c(C)nc3c2)c1,9%

# 5 successive records out of the list so far:
SMILES,VDR inhibitor
C#CCNc1cc(C)nc2ncnn12,-11%
O=C(c1ccccc1)N1CCN(CCc2ccncc2)CC1,19%
CCCCCNC(=O)C1c2ccccc2Oc2ccccc21,-18%
CCOc1ccc(-c2nnc(SCC(=O)Nc3cccc(C#N)c3)o2)cc1,-2%
COc1cc(OC)c(NC(=O)CN2C(=O)CCn3nc(-c4cccn4C)cc32)cc1Cl,6%

# The results go on.
SMILES,VDR inhibitor
COc1ccc(NC(=O)Nc2cccnc2)cc1,15%
CCOc1nc(NC2CCCC2)nc(N2CCC(C)CC2)n1,79µM*
CSc1nnc(SCC(=O)Nc2ccc3[nH]c(=O)[nH]c3c2)s1,4%
Cc1ccc(S(=O)(=O)NNC(=O)C(=O)NNc2ccccn2)cc1,0%
Cc1cccc(C(=O)NC(=S)Nc2ccc(Cc3ccncc3)cc2)c1,-7%
O=C(CN1CCOCC1)Nc1nc2cc([N+](=O)[O-])ccc2s1,-22%
COc1ccc(Cl)cc1NC(=O)CN1Cc2ccccc2C1=O,0%
CC(Sc1nnc(C2CC2)n1C1CC1)C(=O)NC1(C#N)CCCCC1 (stereo unspecified),-24%
O=C(CCNS(=O)(=O)c1ccccc1C(F)(F)F)NC1CCCCCC1,-3%
COc1ccccc1-c1coc2c(CN3C(C)CCCC3C)c(O)ccc2c1=O (stereo unspecified),-4%
CCCN(C/C=C\I)[C@@H]1CCc2cccc(O)c2C1,6%
COc1ccccc1C(=O)N(Cc1sccc1C)C1CCS(=O)(=O)C1 (stereo unspecified),-5%
NC(=O)c1ccsc1NC(=O)COC(=O)COc1ccc(C=O)cc1,?
COC(=O)/C=C1/S/C(=N/NC(=O)c2ccc(Cl)cc2Cl)NC1=O,-3%
COc1ccc(-c2cc(C(F)(F)F)nc(SCC(=O)NCCc3ccccc3)n2)cc1OC,-11%
O=C(CCN1C(=O)c2cccc3cccc(c23)C1=O)NC1CCS(=O)(=O)C1 (stereo unspecified),17%
Cc1nc2cc(Nc3ccncc3)ccc2s1,-20%
COc1cc(OC)cc(-c2c(-c3ccc(F)cc3)c3cc(-c4ccc(SC)cc4)ccc3n2C)c1,1%
O=C(Cn1cc2c(n1)CCCC2)NCCCN1CCN(Cc2ccccc2)CC1,7%
Cc1ccc(N2C(=O)C(NC(=O)c3ccccc3)(C(F)(F)F)C3=C2CC(C)(C)CC3=O)cc1 (stereo unspecified),-4%
COc1ccc2[nH]cc(CCNc3cc(-c4ccccc4OC)ncn3)c2c1,-22%
CCN(CC)CC(=O)Nc1cccc(S(=O)(=O)N2CCCC2)c1,6%
COc1ccc(CCNC(=O)c2c(C)cc(=O)oc2C)cc1OC,4%
O=C(/C=C/c1ccccc1Cl)Nc1cccnc1,-5%
Cc1ccc(-n2cnc3ncnc(-c4ccccc4)c32)cc1,24%
Cc1cccc(NC(=S)NCC(c2cccnc2)N2CCOCC2)c1C (stereo unspecified),2%
CC(C)Cn1c(N)c(C(=O)COC(=O)C2Cc3ccccc3CN2S(C)(=O)=O)c(=O)n(C)c1=O (stereo unspecified),-16%
CC(=O)COc1ccc2c(C)c(C)c(=O)oc2c1,13%
CS(=O)(=O)n1nc(NCc2cccs2)nc1NCc1cccs1,8%
COC(=O)C1=CN(CCOC23CC4CC(CC(C4)C2)C3)C=C(C(=O)OC)C1c1ccsc1,-3%
CCOC(=O)CCc1n[nH]c(=O)[nH]c1=O,-9%
CCc1ccccc1OCCSc1nnc(-c2cc(OC)c(OC)c(OC)c2)o1,21%
CCCn1c(=O)[nH]c(=O)c2c1nc(-c1cc([N+](=O)[O-])ccc1Cl)n2CCOC,-27%
CCOc1ccccc1NS(=O)(=O)c1ccc(Br)s1,3%
O=C(OCC(=O)N1CCN(C(=O)c2ccco2)CC1)c1cccc(S(=O)(=O)N2CCc3ccccc32)c1,-20%
Cc1ccc(C2=NOC3(CC(=O)N(c4ccccc4)C3=O)C2)cc1 (stereo unspecified),-29%
O=C(COC(=O)CN1C(=O)C(=O)c2ccccc21)OCN1C(=O)c2ccccc2C1=O,-3%
COCCOc1cc(NC(=O)CS(=O)(=O)CC(=O)N(C)C)c(Cl)cc1Cl,16%
Cc1ccc(S(=O)(=O)N2CCOc3ccccc32)c(C)c1NS(C)(=O)=O,-15%
Cc1ccc(OCCN2CCN(c3ncnc4sc(C)c(C)c34)CC2)cc1,-13%
Cc1ccc(C)c(NC(=S)NCCc2ccc(F)cc2)c1,-5%
CCCCCC(=O)Nc1cccc(C2=NOC3(C2)C[C@H](C(N)=O)N(C(=O)COc2ccc(Cl)cc2)C3)c1 (stereo partly specified),-25%
COc1ccc(NC(=O)CN2C(=O)NC(C)(c3ccc4c(c3)OCO4)C2=O)cc1S(N)(=O)=O (stereo unspecified),-13%
C=CCNC(=O)C1CC2Cn3c(nc4cc5ccccc5cc43)C2N1C (stereo unspecified),8%

# Not all compounds are listed; count on the stated rates, not on these rows.
